# Bst PK mod: alters activity of Bacillus stearothermophilus pyruvate kinase; AID 361; partly purified Bacillus stearothermophilus pyruvate kinase, luminescence ATP production; ribose 5-phosphate activator present at AC10; hit rate 1.2% among 51,000; Potency, µM; in the data active means potency below about 11 µM; inconclusive means mostly about 12 µM to 25 µM; inactive means weaker than that;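 the screen sought inhibitors and activators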;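 also: potency is read from the fitted curve at half-maximal effect; scaled between full activation by ribose 5 phosphate and full inhibition by luteolin; about four in five hits inhibit and the cells do not say which; series up to 57 µM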
# TsaE inh: inhibitors of E. coli YjeE (TsaE) | purified YjeE, fluorescence polarisation of a bound ADP probe | Potency, µM | hit rate 0.05% among 71,000; active = well fitted falling curve; inconclusive = weaker or top-dose-only fall, or a rising curve; inactive = flat or poorly fitted curve;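 also: top concentration of the series not given in the record; excess ADP was the control for the full effect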
#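 Fluorescence polarization of a BODIPY Texas Red–ADP probe (2 uM) bound to purified YjeE (10 uM) was read after 15 min room-temperature incubation with compounds. Loss of polarization marks inhibitors; ADP serves as titrated control.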
# Starred values were filed as active, the others as inactive; i = inactive; u = inconclusive; x = not tested or not shown.
Bst PK mod,TsaE inh,smiles
x,i,O=C1c2ccccc2C(Nc2ccc3c(c2)OCCO3)N1c1ccccn1 (centres undefined)
>57,i,N#Cc1cccc(-c2nnc(SCc3ccccc3C#N)o2)c1
>57,i,CCc1c(C(=O)NC2CCCC2)csc1C
x,i,COc1ccc2sc(N3C(=O)C4CC=C(C)CC4C3=O)nc2c1 (centres undefined)
>57,i,CC(OC(=O)c1cccs1)C(=O)NCc1ccco1 (centres undefined)
>11,x,Cc1cccc(C)c1OCC(O)CNS(=O)(=O)c1ccccc1C(=O)N1CCOCC1 (centres undefined)
>57,i,Cc1ccc(N2CCN(c3ccc(C)cc3)C2c2ccccn2)cc1
>11,x,COC(=O)CN1C2(C#N)CCCCC2CC2CCCCC21C#N (centres undefined)
>57,i,COc1ccc(C(CC(=O)O)NC(C)=O)cc1OC (centres undefined)
>57,i,c1cc(C2OCCN2CC2COC3(CCCC3)O2)ccn1 (centres undefined)
>26,x,COC(=O)CC1=C(C(=O)OC)C(c2ccncc2)C(C#N)=C(N)O1 (centres undefined)
>57,i,COCC(C)NC(=O)C1CC(c2cccc(Br)c2)=NO1 (centres undefined)
>57,i,O=C(c1c[nH]c2ccccc12)C(O)C(c1ccccc1)N1CCOCC1 (centres undefined)
>57,i,CCOC(=O)c1[nH]c(C)c(C(=O)NC(C)(C)C)c1C
>57,i,CCOc1ccc2[nH]c(=O)c(CN(CCO)C(c3nnnn3C3CCCCC3)C(C)C)cc2c1 (centres undefined)
x,i,N#Cc1ccc2ccn(CC(=O)NCc3ccccc3)c2c1
x,i,CCOC(=O)N1CCc2c(sc(NC(=O)c3ccc(S(=O)(=O)N4CCCC4)cc3)c2C#N)C1
>57,i,Cc1nc2c(C)cccn2c1/C(O)=C1\C(=O)C(=O)N(CCN2CCOCC2)C1c1ccncc1 (centres undefined)
>57,i,Cc1occc1C(=O)NCc1ccccc1F
>57,i,Cc1cc(C)c2cc(C#N)c(SCC(=O)NCC3CCCO3)nc2c1 (centres undefined)
>57,i,O=C(CC1CCCCC1)NCc1ccccn1
>57,i,Cc1cc(C)c2c(=O)c3c(oc2c1)C(=O)N(CCO)C3c1cccc(O)c1 (centres undefined)
x,i,O=C(O)CNC(=O)[C@H]1NC(C(F)(F)F)(C(F)(F)F)OC1(C(F)(F)F)C(F)(F)F
x,i,COCCOC(=O)c1[nH]c2c(c1C)C(=O)CC(c1cc(OC)ccc1OC)C2 (centres undefined)
u,i,CN1CCN(C(=O)c2ccc(S(=O)(=O)c3ccc(Br)cc3)cc2)CC1
>57,i,COc1ccc(NS(=O)(=O)c2ccc(Oc3ncccn3)cc2)cc1
x,i,Cc1ccc(-c2nc(CS(=O)(=O)CC(=O)N3CC(C)CC(C)C3)c(C)o2)cc1 (centres undefined)
>11,i,CC(=O)N1CCCc2cc(S(=O)(=O)N3CCc4ccccc4C3)ccc21
>57,i,CS(=O)(=O)N1CCN(c2ccccc2F)CC1
>57,i,C=CCc1ccccc1OCC(O)CN1CCN(c2ccc(C)cc2)CC1 (centres undefined)
>57,i,O=C(COC(=O)C1COc2ccccc2O1)NC(=O)NC1CCCC1 (centres undefined)
>57,i,Cc1ccc(NC(=O)CC2C(=O)NC3CCCCC3N2C(=O)c2ccc(F)cc2)cc1C (centres undefined)
>57,i,CS(=O)(=O)N1CCCC(C(=O)NCCN2CCC(Cc3ccccc3)CC2)C1 (centres undefined)
x,i,O=C(Cn1cnc2c(cnn2-c2ccc(Cl)cc2)c1=O)NC1CCCCC1
>57,i,COc1ccc2c(c1OC)C(=O)N(c1ccc3c(c1)CCC3)C2=O
x,i,COc1ccc(NC(=O)N2CCCC(c3nc(-c4ccc(C(C)C)cc4)no3)C2)cc1 (centres undefined)
x,i,COc1ccc(NC(=O)CSc2nc(O)c(Cc3ccccc3)c(=O)[nH]2)cc1
x,i,CCOC(=O)C1=C(C)NC(c2ccccc2)=C(C(=O)OCc2ccc([N+](=O)[O-])cc2)[C@@H]1C#Cc1ccccc1
>57,i,OC(COC1CCCCC1)CN1CCN(c2ccccc2)CC1 (centres undefined)
>57,i,O=C(c1ccc(F)cc1)c1cn[nH]c1-c1ccccc1O
x,i,C[C@@H]1CCCN(C[C@@H](O)CN2CCCc3ccccc32)C1
>57,i,CC(C)Nc1nc(NC(C)C)nc(N(C)C(N)=O)n1
>57,i,COc1ccc(C2OC(=O)CC2C(=O)NC(C)C)cc1 (centres undefined)
>57,i,Cc1ccc(CC(NC(=O)c2ccccc2)C(=O)N2CCCC2C(=O)O)cc1 (centres undefined)
>57,i,COC(=O)Cc1[nH]nc2c1C1(C(=O)N(Cc3ccc(Cl)cc3)c3ccccc31)C(C#N)=C(N)O2 (centres undefined)
>57,i,CCOc1ccc(N2C(=O)CC(NCCc3ccncc3)C2=O)cc1 (centres undefined)
x,i,Nc1ccc(N2C(=O)c3ccccc3C2=O)c(Cl)c1
x,i,CC(C)(Oc1ccc(Cl)cc1)C(=O)N1CCN(c2ccccn2)CC1
x,i,O=C(c1ccc(-c2ccccc2)cc1)N1CCN(C(=O)c2ccco2)CC1
>57,i,c1ccc(CSCc2cn3ccsc3n2)cc1
>57,i,COc1ccc(NC(=O)CS(=O)CC(=O)Nc2cc(Cl)ccc2OC)cc1 (centres undefined)
x,i,CCCc1n[nH]c2c1C(=O)CC(C)(C)C2
x,i,O=C(NCc1ccc2c(c1)OCO2)c1cccc2c1C(=O)N(C1CCCCC1)C2
>57,i,CN(C)C(=O)N1CCC(C(=O)NCc2cccs2)CC1
>57,i,O=C(NCc1ccco1)c1ccc(CS(=O)(=O)Cc2ccc(Cl)cc2)o1
>57,i,CCOC(=O)C1CCCN(CCC(C)c2ccccc2)C1 (centres undefined)
>57,i,CCn1c(SCC(=O)N2CC(=O)Nc3ccccc32)nnc1-c1ccoc1C
>57,i,COc1ccc(Br)cc1CNC(=O)CCc1nc(-c2ccc(C)cc2)no1
>57,i,CCCCc1nnc(NC(=O)C2CCCO2)s1 (centres undefined)
>57,i,Cc1ccc(-n2c(C)c3c(C)nnc(C)c3c2C)cc1

# Next structures follow:
Bst PK mod,TsaE inh,smiles
>57,i,CCCCCC(=O)Nc1ccc(Cl)cn1
>57,i,O=C(c1c(F)cccc1F)N(Cc1ccccn1)C1CCCC1
>57,i,CN(C1CCCCC1)S(=O)(=O)c1ccc(NC(=O)CCC(=O)O)cc1
>57,i,CCOC(=O)C1CCCN(C(=O)CN2C(=O)C(CC)Oc3ccc(C)cc32)C1 (centres undefined)
x,i,CN(Cc1ccco1)c1ncncc1-c1ccccc1Cl
>57,i,COc1ccc(NS(=O)(=O)c2ccc(NC(=O)C(C)(C(F)(F)F)C(F)(F)F)cc2)nn1
>57,i,O=C(CN1C(=O)NC2(CCCCCCC2)C1=O)N1CCOCC1
>57,i,CC(=O)OC1COC(n2ccc3ccccc32)C(OC(C)=O)C1OC(C)=O (centres undefined)
x,i,COc1cc(CN2CCN(C(=O)CC(C)C)CC2)cc(OC)c1OC
>57,i,CCOC(=O)NC1CCS(=O)(=O)C1 (centres undefined)
x,i,O=C1c2ccccc2-c2ncnc3c(N4CCOCC4)cc(N4CCOCC4)c1c23
>57,i,Cc1nnc(Oc2ccccc2F)c2ccccc12
>57,i,CCn1c(SCC(=O)Nc2cc(C)on2)nc2c(c1=O)SC(C)C2 (centres undefined)
>57,i,COc1ccc2c(c1)C(NC(C)=O)C(=O)N2C (centres undefined)
>57,i,CC(C)c1ccc(NC(=O)COC(=O)C2=COCCO2)cc1
x,i,COc1ccc2oc(-c3ccccc3)c(OC)c(=O)c2c1
x,i,CC(C)[C@H](N=Cc1ccccc1O)C(=O)O
x,i,CC(=O)N1CCC2(CCCN(Cc3nccs3)C2)CC1
4.2*,i,CCOc1ccc(NC(=O)c2cccc3c2C(=O)N(Cc2cccnc2)C3)cc1
>57,i,O=C(OCc1cc(Cl)ccc1OC(F)F)c1cc(S(=O)(=O)O)ccc1O
x,i,C=CCn1c(=N)c(C(=O)OCC)cc2c(=O)n3cc(C)ccc3nc21
x,i,O=C(NCC1CCCO1)NC12CC3CC(CC(C3)C1)C2 (centres undefined)
>57,i,C=CCN1C(=O)c2ccccc2Sc2ccc(C(=O)N3CCN(C)CC3)cc21
>57,i,O=C(Nc1ccc(N2CCOCC2)cc1)c1cccc(S(=O)(=O)N2CCCC2)c1
>57,i,CCn1c(SCC(=O)Nc2nccs2)nnc1-c1ccc(S(=O)(=O)N2CCCCC2)cc1
x,i,O=C(c1csnn1)N1CCC2(CCN(Cc3ccccc3)CC2)CC1
i,i,CC(C)(C)c1ccc(-c2noc(CCC(N)=O)n2)cc1
>57,i,Cc1cc(NC(=O)C2CCCC2)nc2c1c(=O)oc1ccccc12
x,i,Cc1csc(NC(=O)C(Cc2ccccc2)n2cccc2)n1 (centres undefined)
>57,i,COc1cccc(C(=O)Nc2cccc(C(=O)N3CCOCC3)c2)c1
x,i,Cc1ccc(S(=O)(=O)N2CCCC2C(=O)Nc2ccc(O)cc2)cc1 (centres undefined)
x,i,CCOC(=O)CSc1ccc2nnc(-c3cccnc3)n2n1
>57,i,Cc1cc(N2CCN(C3CCCC3)CC2)n2nc(C)c(-c3ccccc3)c2n1
u,i,O=C(O)C1=C(C(=O)Nc2ccc(F)c(Cl)c2)CCCC1
>57,i,c1csc(-c2cnc3n2CCCC3)c1
>57,i,c1ccc2c(c1)nc1n2CCS1
>57,i,Cc1cc(=O)oc2ccc(OC(=O)c3cccc(S(=O)(=O)N4CCOCC4)c3)cc12
u,i,O=S(=O)(NC1CCCc2ccccc21)c1cnc[nH]1 (centres undefined)
x,i,COc1ccc(OC)c(NS(=O)(=O)c2ccc(NC(=O)C3COc4ccccc4O3)cc2)c1 (centres undefined)
>57,i,COCCNC(=O)CC(NS(=O)(=O)c1ccc(C)cc1)c1ccco1 (centres undefined)

# Copied from the entries so far for reference:
Bst PK mod,TsaE inh,smiles
x,i,C=CCn1c(=N)c(C(=O)OCC)cc2c(=O)n3cc(C)ccc3nc21
x,i,O=C(NCC1CCCO1)NC12CC3CC(CC(C3)C1)C2 (centres undefined)
>57,i,C=CCN1C(=O)c2ccccc2Sc2ccc(C(=O)N3CCN(C)CC3)cc21
>57,i,O=C(Nc1ccc(N2CCOCC2)cc1)c1cccc(S(=O)(=O)N2CCCC2)c1
>57,i,CCn1c(SCC(=O)Nc2nccs2)nnc1-c1ccc(S(=O)(=O)N2CCCCC2)cc1
x,i,O=C(c1csnn1)N1CCC2(CCN(Cc3ccccc3)CC2)CC1
i,i,CC(C)(C)c1ccc(-c2noc(CCC(N)=O)n2)cc1
>57,i,Cc1cc(NC(=O)C2CCCC2)nc2c1c(=O)oc1ccccc12
x,i,Cc1csc(NC(=O)C(Cc2ccccc2)n2cccc2)n1 (centres undefined)
>57,i,COc1cccc(C(=O)Nc2cccc(C(=O)N3CCOCC3)c2)c1
x,i,Cc1ccc(S(=O)(=O)N2CCCC2C(=O)Nc2ccc(O)cc2)cc1 (centres undefined)
x,i,CCOC(=O)CSc1ccc2nnc(-c3cccnc3)n2n1
>57,i,Cc1cc(N2CCN(C3CCCC3)CC2)n2nc(C)c(-c3ccccc3)c2n1
u,i,O=C(O)C1=C(C(=O)Nc2ccc(F)c(Cl)c2)CCCC1
>57,i,c1csc(-c2cnc3n2CCCC3)c1
>57,i,c1ccc2c(c1)nc1n2CCS1

# The listing picks up, repeating the 2 entries before the break.
Bst PK mod,TsaE inh,smiles
x,i,COc1ccc(OC)c(NS(=O)(=O)c2ccc(NC(=O)C3COc4ccccc4O3)cc2)c1 (centres undefined)
>57,i,COCCNC(=O)CC(NS(=O)(=O)c1ccc(C)cc1)c1ccco1 (centres undefined)
>57,i,CCC(C)(C)NC(=O)C(c1cccnc1)N(CCOC)C(=O)Cn1nnc2ccccc21 (centres undefined)
x,i,COc1ccc(C2=CC(c3ccc(Cl)cc3)n3cnnc3N2)cc1OC (centres undefined)
>57,i,O=S(=O)(c1ccc2c(c1)OCCO2)N1CCC(n2cnc3cc(F)ccc32)CC1
>57,i,Cc1ccccc1Cn1cnc2c(nnn2Cc2ccc(F)cc2)c1=O
>57,i,O=S(=O)(NC1CC1)c1ccc(S(=O)(=O)N2CCc3ccccc32)cc1
>57,i,COc1ccc(NC(=O)CN(C)S(=O)(=O)c2ccccc2)cc1OC
>57,i,Cc1ccc(OC(=O)CCc2c(C)nc3ncnn3c2C)cc1
>26,x,O=C1CC(NCc2ccc3c(c2)OCO3)C(=O)N1Cc1ccc2c(c1)OCO2 (centres undefined)
>57,i,CCOC(=O)C1=C(C)N(CCO)C(=O)NC1c1ccccc1 (centres undefined)
>57,i,Cc1cccn2cc(CNC(=O)c3ccco3)nc12
>57,i,C=CCn1c2ccccc2c2nnc(SCc3ccc4nonc4c3)nc21
x,i,CCOC(=O)Nc1ccc2ncn(C)c(=O)c2c1
>57,i,C=CCNC(=O)C1CC(=O)N(c2ccc(OCC(=O)Nc3ccc(OC)cc3)cc2)C1 (centres undefined)
>57,i,O=C(c1ccc(Cl)cc1)C1CCN(C(=O)N2CCOCC2)CC1
x,i,Nc1ccc2c(c1)C(=O)c1ccccc1C2=O
x,i,COc1cc(OC)c(C(=O)CCCN2CCCC2)c(OC)c1
>57,i,O=C(Cc1cccs1)Nc1cccc(C(=O)Nc2ccco2)c1
>57,i,Clc1ccc(C2CC(c3ccco3)n3ncnc3N2)cc1Cl (centres undefined)
x,i,CCC/C=C(\CCC)C(NS(=O)(=O)c1ccc(C(F)(F)F)cc1)c1ccccc1 (centres undefined)
>57,i,COc1ccc(OC)c(C2N(c3ccccn3)C(=O)C3CCCN32)c1 (centres undefined)
x,i,CS(=O)(=O)Nc1cccc2cccnc12

# Screening results from PubChem BioAssay.

# These rows are one share of the data; rates above refer to the full screens.
